# Screening data (PubChem BioAssay)
# HSV replic up = enhancers of HSV replication in host cells, fold increase, host cell viability; HSV replication augmentation in cells; maximum fold increase; 220,000 compounds, 0.005% hits;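 active means peak rise of 1.5-fold or more in the series; inconclusive means self-fluorescent or not available for retest; tested in PC3 cells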;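 further: first round at 10 µM; read as green reporter fluorescence; hits show the peak of a series up to 25 µM; 1 = signal of infected wells without compound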
# PKD1 inh = inhibitors of human PKD1 kinase, biochemical, fluorescence polarization; PKD1 kinase fluorescence polarization assay; inhibition, %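 (about 10 µM by stock and volumes)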; 200,000 compounds, 0.056% hits;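 active means inhibition of 50% or more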;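 further: controls were vehicle for no effect and a reference inhibitor for full effect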
# INS promoter inh = inhibitors of insulin promoter-driven GFP, primary screen, imaging, TRM-6 cells (human fetal islet line), eGFP reporter, cell count. reporter expression induced with tamoxifen. AID 1273, 2008. 130,000 compounds, 0.9% hits. inhibition, % at 2 µM;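 active means inhibition above the mean plus 3 SD, with well images judged a real hit on visual review, cut at about 60% in these data, passing the limit was not always enough; inconclusive means inhibition over the cutoff but images rejected on review; inactive means inhibition not above the cutoff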
# RGS16-Gao HTS = modulators of RGS16 binding to Galphao, primary screen, biochemical, human proteins, multiplexed bead flow cytometry; Regulator of G-protein signaling 16 (Homo sapiens) + Guanine nucleotide-binding protein …; bead-based flow cytometry RGS16-Galphao binding, fluorescence; actives lie on both sides; binding response (% of control), % at 10 µM; 220,000 compounds, 0.38% hits;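 active means below 25% or above 175%, edge rows of some plates excepted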;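 further: Galphao activated by GDP with aluminum fluoride before binding; 100% = wells without compound and 0% = beads without RGS; some results beyond the cut were filed as inactive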
# Target sequence (O15492 whole entry, looked up): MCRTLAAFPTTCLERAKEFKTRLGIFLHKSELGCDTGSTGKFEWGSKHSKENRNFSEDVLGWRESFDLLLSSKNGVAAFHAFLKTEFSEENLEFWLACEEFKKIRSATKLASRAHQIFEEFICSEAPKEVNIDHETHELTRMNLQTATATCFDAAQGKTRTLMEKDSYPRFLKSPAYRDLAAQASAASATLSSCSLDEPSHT
# Target sequence (P09471 whole entry, looked up): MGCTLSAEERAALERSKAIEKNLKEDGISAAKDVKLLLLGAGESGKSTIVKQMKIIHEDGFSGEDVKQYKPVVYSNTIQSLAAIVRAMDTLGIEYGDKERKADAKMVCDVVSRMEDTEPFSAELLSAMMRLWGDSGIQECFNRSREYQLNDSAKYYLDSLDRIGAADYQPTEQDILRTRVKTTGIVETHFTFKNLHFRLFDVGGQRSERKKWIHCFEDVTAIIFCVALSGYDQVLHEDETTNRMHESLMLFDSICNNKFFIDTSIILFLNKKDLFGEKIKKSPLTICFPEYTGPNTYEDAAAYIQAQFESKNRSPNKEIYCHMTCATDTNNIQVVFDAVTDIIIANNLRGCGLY
# GALR2 agonist = GALR2 receptor agonists, primary screen, cell-based. 140,000 compounds, 0.48% hits. GALR2-expressing cells, agonist activation read-out. activation, %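 (tested at 5 µM)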. Galanin receptor type 2 (Homo sapiens), O43603;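 active means above mean plus 3 SD of all compounds, about 5% in these data, not always enough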;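 further: 0% = vehicle buffer wells and 100% = reference agonist at full effect; tested in CHO reporter cells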
# Target sequence (O43603 whole entry, looked up): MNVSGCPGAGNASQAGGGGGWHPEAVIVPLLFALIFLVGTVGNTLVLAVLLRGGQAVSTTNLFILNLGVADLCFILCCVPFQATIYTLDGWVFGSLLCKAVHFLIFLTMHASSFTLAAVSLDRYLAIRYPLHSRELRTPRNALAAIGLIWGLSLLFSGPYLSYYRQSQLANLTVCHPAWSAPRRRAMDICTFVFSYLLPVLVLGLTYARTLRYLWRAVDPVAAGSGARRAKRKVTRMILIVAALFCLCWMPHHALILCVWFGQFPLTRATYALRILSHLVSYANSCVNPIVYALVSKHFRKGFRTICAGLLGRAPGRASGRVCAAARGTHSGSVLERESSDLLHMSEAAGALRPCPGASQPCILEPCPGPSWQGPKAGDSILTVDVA
# INS promoter inh cell count = also measured in INS promoter inh; calls as there; normalized cell count, %; measured here: cell count, toxicity; reference of the scale not given here;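 cells exposed to compound for 48 h; stained nuclei by imaging scaled within each plate; lower means fewer cells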
# HSV replic up primary fold = also measured in HSV replic up; calls as there; fold increase; compound at 10 µM; measured here: primary screen fold increase 10 uM; tested in PC3 cells;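 GFP signal in the first replicate; 1 = infected wells without compound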
# * = called active by the depositor; i = inactive; ? = inconclusive; . = not tested or not shown.
SMILES,HSV replic up,HSV replic up primary fold,PKD1 inh,INS promoter inh,INS promoter inh cell count,RGS16-Gao HTS,GALR2 agonist
COc1ccc(NC(=O)CSc2ccc(C)cc2)cc1,i,0.89,-1,-15,125,114,-3.0
N=c1n(Cc2ccc(Cl)cc2)c2ccccc2n1CC(O)COc1ccccc1 (stereo unspecified),i,0.77,9,.,.,40,.
CCCCC(=O)Nc1cc(C(=O)NCCc2ccccc2)ccc1Cl,i,0.85,7,.,.,186,-2.4
N#CC1=C(N)Oc2cc(O)ccc2C1c1cccnc1 (stereo unspecified),i,1,-2,-39,129,106,.
CCc1ccccc1NC(=O)c1cc(C2CC2)on1,i,0.76,8,.,.,103,.
CC(=O)c1c(N2CCN(CCO)CC2)nc(=S)n(-c2ccccc2)c1C,i,1.2,4,.,.,98,.
Cc1nc(CS(=O)(=O)c2ccc(Cl)cc2)cc(Sc2ccc(Cl)cc2)n1,i,0.86,1,-11,89,100,0.9
CCC(=O)Nc1nnc(SCCN2CCOCC2)s1,i,0.98,-5,-108,157,103,-0.6
CCC(=O)N1CCCc2cc(S(=O)(=O)N3CCCc4ccccc43)ccc21,i,0.92,-3,-338,41,98,-3.4
COc1cc(C)c(-c2[nH]ncc2-c2csc(C)n2)c(O)c1,i,1,0,0,139,103,0.0
CC1CCCCC1NC(=O)C1CC=CCC1C(=O)O (stereo unspecified),i,0.9,-2,19,120,116,-1.4
CCCCN(C)C(=O)c1nc2ccccn2c1CN1CCN(c2ccccn2)CC1,i,0.93,3,8,98,105,.

# Seven entries out of the list, ordered by SMILES length, ascending.
SMILES,HSV replic up,HSV replic up primary fold,PKD1 inh,INS promoter inh,INS promoter inh cell count,RGS16-Gao HTS,GALR2 agonist
CCC(=O)Nc1nnc(SCCN2CCOCC2)s1,i,0.98,-5,-108,157,103,-0.6
COc1ccc(NC(=O)CSc2ccc(C)cc2)cc1,i,0.89,-1,-15,125,114,-3.0
CCCCC(=O)Nc1cc(C(=O)NCCc2ccccc2)ccc1Cl,i,0.85,7,.,.,186,-2.4
COc1cc(C)c(-c2[nH]ncc2-c2csc(C)n2)c(O)c1,i,1,0,0,139,103,0.0
N=c1n(Cc2ccc(Cl)cc2)c2ccccc2n1CC(O)COc1ccccc1 (stereo unspecified),i,0.77,9,.,.,40,.
CCC(=O)N1CCCc2cc(S(=O)(=O)N3CCCc4ccccc43)ccc21,i,0.92,-3,-338,41,98,-3.4
Cc1nc(CS(=O)(=O)c2ccc(Cl)cc2)cc(Sc2ccc(Cl)cc2)n1,i,0.86,1,-11,89,100,0.9

# Other structures.
SMILES,HSV replic up,HSV replic up primary fold,PKD1 inh,INS promoter inh,INS promoter inh cell count,RGS16-Gao HTS,GALR2 agonist
CN1C(C(=O)NCCc2cccs2)CC2Cn3c(nc4cc(Cl)c(Cl)cc43)C21 (stereo unspecified),i,0.91,.,.,.,93,.
COc1ccc(/C=N/NC(=O)c2cccc(COCC(F)(F)C(F)F)c2)cc1,i,0.97,-2,.,.,103,-0.5
CCCOc1ccccc1NC(=O)CC1Nc2ccccc2NC1=O (stereo unspecified),i,0.75,2,-25,122,98,-0.4
COc1ccc(CCn2cnc(=O)c(C#N)c2C)cc1OC,i,0.96,0,36,166,113,.
CCCCc1nn(-c2cc(Cl)ccc2OC)c2c1C(=O)CC(C)(C)C2,i,1.1,4,.,.,99,-0.9
CCOC(=S)SCC(=O)N1CCc2ccccc2C1C1C(=O)CC(C)(C)CC1=O (stereo unspecified),i,1.1,-6,.,.,100,-1.1
O=C(NCC(=O)N(Cc1cccs1)C(C(=O)NC1CCCC1)c1cccnc1)c1ccco1 (stereo unspecified),i,1.1,-5,31,134,148,-2.5
Cc1cc(NC(=O)CCCC(=O)N(CC(=O)NCCc2ccccc2)Cc2ccc(F)cc2)no1,i,0.81,-3,.,.,99,-1.3
NC(=O)N/N=C/c1c(Sc2nnnn2-c2ccccc2)nc2ccccn2c1=O,i,0.89,.,.,.,101,.
Cn1c(O)c(/C=C2\C=Nc3ccccc32)sc1=Nc1ccc(C(=O)O)cc1,i,0.86,.,.,.,99,.
O=S(=O)(Nc1ccccn1)c1ccc(C(F)(F)F)cc1Cl,i,1.2,.,.,.,103,.
CNC(=O)C(=O)N/N=C/c1cccnc1,i,1.1,.,.,.,101,.
O=C(Nc1ccc(S(=O)(=O)N2CCOCC2)cc1)c1ccc(Br)o1,i,1,-6,-45,251,101,-4.0
O=C(CSC1=NCCN1)Nc1cccc(C(F)(F)F)c1,i,0.95,4,.,.,104,.
COc1ccc(Cc2n[nH]c(=S)n2N)cc1OC,i,1,8,-35,136,86,.
O=C(NCCc1ccccc1)c1cnc2ccccn2c1=O,i,0.83,-17,-7,61,89,-4.0
O=C(C1CCCO1)N1CCN(Cc2c(O)ccc3ccccc23)CC1 (stereo unspecified),i,0.57,-6,7,111,101,-1.5
CCOc1ccc(N(CC(=O)NC2CCCCC2)S(=O)(=O)c2c(C)noc2C)cc1,i,0.9,0,.,.,111,-0.4
CCCc1nnc(NC(=O)CNc2ccc(F)cc2)s1,i,1,-2,-7,48,98,-3.0
COc1ccc(-c2cc(C(=O)NN)[nH]n2)cc1OC,i,0.74,1,-84,36,103,.
COc1ccc(C)cc1N(CC(=O)N1CCc2ccccc2C1)S(C)(=O)=O,i,0.83,-5,.,.,106,.
CSc1nc2ncc(C(=O)O)c(N)n2n1,i,1.1,0,9,87,107,.
O=C(N/C(=C\c1cccs1)C(=O)N1CCCCCC1)c1ccccc1,i,0.98,-2,21,59,104,0.2
COc1cccc(C(=O)N2CCN(S(=O)(=O)Cc3ccccc3)CC2)c1OC,i,0.93,7,21,144,107,-1.9
O=S(=O)(NC1CC1)c1ccc(S(=O)(=O)N(Cc2ccccn2)C2CCCC2)cc1,i,0.84,-4,-65,112,107,1.5
CCCCCCNC(=O)CC(NS(=O)(=O)c1ccc(OC)cc1)C(C)C (stereo unspecified),i,1,-10,0,105,88,-2.2
CN(C)C(CNC(C(=O)Nc1ccc([N+](=O)[O-])cc1Br)c1ccccc1)c1ccccc1 (stereo unspecified),i,0.94,-5,.,.,103,.
O=C(Cc1cn2ccsc2n1)Nc1nc2c(s1)CN(Cc1ccccc1)CC2,i,1.1,-12,.,.,96,-0.1
NC(=O)c1cc(-c2ccccc2)sc1NC(=O)CN1CCCCC1,i,0.99,-12,.,.,100,1.0
CC(C(=O)c1c[nH]c(C(=O)N=CN(C)C)c1)c1ncc(C(F)(F)F)cc1Cl (stereo unspecified),i,0.94,1,27,95,97,.
CCCn1c(SCC(=O)Nc2ccc3c(c2)OCO3)nc2c1c(=O)n(C)c(=O)n2C,i,0.89,0,.,.,98,0.4
CC(C)(C)NC(=O)NC(=O)COc1ccc(Br)cc1Br,i,0.77,-8,.,.,101,0.6
CC1CCCC(C)N1C(=O)COC(=O)c1cc(Br)ccc1Cl (stereo unspecified),i,1,-3,47,117,101,.
COc1cccc(-c2nnn(CC(=O)NC3CCCC3)n2)c1OC,i,1,-4,-9,91,105,-2.3
CCCNC(=O)NS(=O)(=O)c1ccc(Cl)cc1,i,0.64,-7,-55,171,99,-0.9
CCn1cc(C(=O)NCc2ccc3c(c2)OCO3)c(=O)c2cc(F)c(N3CCN(C(=O)c4ccco4)CC3)cc21,i,0.63,5,18,119,107,-0.2
Cc1cc(C)c(NC(=O)COC(=O)c2ccc([N+](=O)[O-])s2)c(C)c1,i,1,9,-38,70,26,-1.3
Cc1ccccc1N1CCN(CCCOc2ccc3c(C)cc(=O)oc3c2)CC1,i,0.94,-7,-188,131,71,-0.6
O=C(Cc1ccc(F)cc1)NC1CCCC1,i,0.96,9,-22,71,97,-0.7
COc1ccc(OC)c(Nc2cc(C)nc3nc(C)nn23)c1,i,0.78,-11,.,.,102,-0.6
N/C(=N\OC(=O)COc1ccc(Br)cc1Cl)c1cccnc1,.,.,-2,-33,84,86,0.5
CCOC(=O)c1c(C)[nH]c(C2=NNC(=Nc3ccccc3)SC2)c1C,i,1.1,-4,.,.,100,-1.2
COc1cc2c(cc1OC)C(C1C(=O)CC(C)(C)CC1=O)N(C(=O)CCl)CC2 (stereo unspecified),i,1.1,-9,-30,100,17*,0.0
Cc1cccc(OCCOCCN2CCNCC2)c1C,i,0.81,-9,-27,83,99,0.2
OC1(c2cccs2)CN(c2ccccc2)C2=[N+]1CCCC2 (stereo unspecified),i,0.91,-5,.,.,103,.
C=CCSC1=C(C#N)C(c2cccc(OC)c2)CC(=O)N1 (stereo unspecified),i,0.96,0,46,128,102,-2.7
Cc1cccc(C(=O)Nc2nnc(-c3ccc(C(C)(C)C)cc3)s2)c1,i,0.68,4,.,.,102,-0.9
COc1ccc(N(CC(O)Cn2cnc3ccccc32)S(=O)(=O)c2ccc(C)cc2)cc1 (stereo unspecified),.,.,-5,-38,128,103,-0.4

# Gathered by group, the compounds so far containing an NH in an aromatic ring (five)
SMILES,HSV replic up,HSV replic up primary fold,PKD1 inh,INS promoter inh,INS promoter inh cell count,RGS16-Gao HTS,GALR2 agonist
COc1cc(C)c(-c2[nH]ncc2-c2csc(C)n2)c(O)c1,i,1,0,0,139,103,0.0
COc1ccc(Cc2n[nH]c(=S)n2N)cc1OC,i,1,8,-35,136,86,.
COc1ccc(-c2cc(C(=O)NN)[nH]n2)cc1OC,i,0.74,1,-84,36,103,.
CC(C(=O)c1c[nH]c(C(=O)N=CN(C)C)c1)c1ncc(C(F)(F)F)cc1Cl (stereo unspecified),i,0.94,1,27,95,97,.
CCOC(=O)c1c(C)[nH]c(C2=NNC(=Nc3ccccc3)SC2)c1C,i,1.1,-4,.,.,100,-1.2

# Carrying on:
SMILES,HSV replic up,HSV replic up primary fold,PKD1 inh,INS promoter inh,INS promoter inh cell count,RGS16-Gao HTS,GALR2 agonist
CCOC(=O)Cc1c(C)nc2cc(C)nn2c1C,i,1,-3,23,108,104,-1.1
C=CCOC(=O)C1C(=O)CC(C)(O)C(C(=O)OCC=C)C1c1ccc(OC)cc1 (stereo unspecified),i,1,-14,43,102,107,-2.3
Cc1cc(N2CCN(C(=O)c3ccco3)CC2)nc(-c2ccccc2)n1,i,0.85,.,.,.,104,.
Cc1cc(S(=O)(=O)NCc2cccnc2)ccc1-n1cnnn1,i,0.88,1,.,.,100,0.0
O=C1Nc2c(c(=O)[nH]c(=O)n2-c2ccccc2)C1(Nc1ncccn1)C(F)(F)F (stereo unspecified),i,0.9,-13,-60,71,95,-2.5
COc1cccc(-c2ccc(C#N)c(SCC(=O)NCCc3cccc(Cl)c3)n2)c1,i,0.89,-3,-13,39,107,-3.3
S=c1[nH]nc(-c2ccc(Br)cc2)n1-c1ccc2c(c1)OCCO2,?,.,.,.,.,104,.
COc1ccc(C(=O)NC(=S)N2CCCc3ccccc32)cc1OC,i,1,-6,-60,74,100,.
